# VDR inh – Inhibitors of the vitamin D receptor (VDR): qHTS | AID 504847, 2011 | Vitamin D3 receptor (Homo sapiens), P11473 | 400,000 compounds, 0.93% hits | Potency, µM, for inactives: max response, negative = inhibition, usual class: inhibitors | VDR-SRC2-3 peptide fluorescence polarization, 2 h; active = well fitted inhibition curve with a large enough effect; inconclusive = small, poorly fitted or top-dose-only effect, or another doubt; inactive = no such curve, though single readings can be large or run the other way; also: series mostly up to about 120 µM
# Target sequence (P11473 whole entry, looked up): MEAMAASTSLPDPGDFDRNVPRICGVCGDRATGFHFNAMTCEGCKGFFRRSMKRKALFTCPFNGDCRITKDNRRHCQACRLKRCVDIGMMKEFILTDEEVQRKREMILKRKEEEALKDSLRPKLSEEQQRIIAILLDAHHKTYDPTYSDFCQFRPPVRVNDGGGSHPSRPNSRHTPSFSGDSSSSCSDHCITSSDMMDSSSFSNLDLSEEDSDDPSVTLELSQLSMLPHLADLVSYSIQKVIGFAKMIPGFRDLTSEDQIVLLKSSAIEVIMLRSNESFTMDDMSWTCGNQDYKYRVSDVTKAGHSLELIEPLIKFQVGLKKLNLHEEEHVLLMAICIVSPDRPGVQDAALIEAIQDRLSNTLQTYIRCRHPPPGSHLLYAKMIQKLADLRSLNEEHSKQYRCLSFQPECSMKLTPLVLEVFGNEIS
#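 Measured by FP: displacement of SRC2-3 coactivator peptide from VDR by library compounds, following a two-hour ambient incubation.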
# An asterisk follows results filed as active; ? = inconclusive. % is scaled to controls: 0 for no effect and ±100 for the full control effect; potency is read from the fitted curve at half-maximal effect. A portion of the library. The share of hits here may be higher or lower than overall.
SMILES | VDR inh
COC(=O)CCCC1=CC2=C(c3ccccc3)C(=O)C(C)(OC(=O)C3CCCC3)C(=O)C2=CN1C1CCCCC1 (stereo not drawn) | 5%
O=C(COC(=O)c1ccc(O)cc1O)Nc1ccc(Cl)cn1 | 13%
Cc1onc(-c2ccccc2Cl)c1C(=O)Nc1cccnc1 | 9%
Cc1ccc(NC(=O)N2CCC(C(=O)NCCC3=CCCCC3)CC2)cc1 | -8%
CCCn1c(N/N=C\C=C\c2ccccc2)nc2c1c(=O)[nH]c(=O)n2C | -9%
Cc1cc(C)cc(N(CC(=O)NCC2CCCO2)C(=O)CN2C(=O)COc3ccccc32)c1 (stereo not drawn) | -18%
COc1cc(C(=O)N2CCc3ccccc32)c([N+](=O)[O-])cc1OC | 7%
O=C(c1ccco1)N1CCN(S(=O)(=O)c2ccccc2[N+](=O)[O-])CC1 | -10%
CCOC(=O)C1=C(COC(=O)c2ccc(C)s2)NC(=O)NC1C (stereo not drawn) | -11%
COc1ccc(S(=O)(=O)N2CCOCC2)cc1 | 3%

# 3 structures from above, ordered by formula weight, largest number first:
SMILES | VDR inh
COc1cc(C(=O)N2CCc3ccccc32)c([N+](=O)[O-])cc1OC | 7%
Cc1onc(-c2ccccc2Cl)c1C(=O)Nc1cccnc1 | 9%
COc1ccc(S(=O)(=O)N2CCOCC2)cc1 | 3%

# The list goes on:
SMILES | VDR inh
O=C(CCl)Nc1cc(S(=O)(=O)N2CCCCCC2)ccc1Cl | -21%
O=C(CSc1cn(CCNC(=O)c2cccs2)c2ccccc12)NCc1ccccc1 | 2%
CCOC(=O)C(=Cc1ccc(-c2ccsc2C(=O)OC)o1)C(=O)OCC | ?
CSc1ccc(S(=O)(=O)NCc2ccccc2Cl)cc1 | 7%
CCc1nnc(NC(=O)c2cc3c(s2)CCCCC3)s1 | -11%
CC1(C)CC(=O)C=C(c2ccc3[nH]ccc3c2)C1 | 11%
COc1cccc(CC(=O)Nn2c(C)nc3ccccc3c2=O)c1 | 5%
C/C(CC(=O)Nc1cc(C)ccn1)=N\NC(=O)c1cccc(C)c1 | -17%
COc1ccc(S(=O)(=O)N2CCOCC2)cc1NC(=O)CSc1n[nH]c(C(C)C)n1 | 1%
Cc1ccc(C(=O)N2C(CC(=O)Nc3ccc(Cl)cc3)C(=O)NC3CCCCC32)cc1 (stereo not drawn) | -18%
COc1ccccc1CN=C1Nc2ccccc2CS1 | 3%
O=C(Nc1ccc(NC(=O)c2ccco2)c(Cl)c1)c1cccc([N+](=O)[O-])c1 | -1%
CC(C)C(=O)Nc1ccc(N2CCOCC2)c(S(=O)(=O)Nc2ccccc2Cl)c1 | ?
Cc1ccc(-n2ncc3c(NCCCn4ccnc4)ncnc32)cc1 | -12%
Cc1ccc(NC(=O)CS(=O)c2ccccc2N)c(C)c1 (stereo not drawn) | -5%
CC(=O)N1CCN(C(=O)COC(=O)CNC(=O)c2ccc(C)cc2)CC1 | 5%
CC(C)OC(=O)c1cc(=O)[nH]c2ccccc12 | 9%
CCN(CC(=O)Nc1ccccc1OC)C(=O)CN1C(=O)NC(C)(c2ccc3ccccc3c2)C1=O (stereo not drawn) | -12%
O=C(Nc1ccc(Cl)cc1Cl)NC1CCN(S(=O)(=O)c2ccc(F)cc2)CC1 | 6%
COc1cc(NC(=O)CC2C(=O)N(c3cccc(C)c3)C(=O)N2Cc2cccs2)cc(OC)c1 (stereo not drawn) | 9%
Cc1ccc(C(=O)NCCN2CCOCC2)cc1S(=O)(=O)N1CCCCC1 | -14%
COC(=O)CNC(=O)CNC(=O)c1nn(-c2ccc(OC)c(Cl)c2)c(=O)c2ccccc12 | 1%
CCCOc1ccc(Cc2c(Cl)nc(SC)nc2N(C)C)cc1 | -5%
O=C(c1ccc2c(=O)n3c(nc2c1)CCCCC3)N1CCN(Cc2ccccc2)CC1 | 5%
Cc1c(NC(=O)CN2C(=O)c3ccc([N+](=O)[O-])cc3C2=O)c(=O)n(-c2ccccc2)n1C | -9%
CCN(CC)C(=O)c1sc2nc(-c3cccs3)cc(-c3cccs3)c2c1N | -26%
COc1ccccc1CCC(=O)N1CCN(C(=O)c2ccccc2)CC1 | 7%
OC(CON=C1c2ccccc2-c2ccccc21)CN1CCNCC1 (stereo not drawn) | 4%
O=C(O)CC1(CC(=O)Nc2ccc(Br)cc2)CCCCC1 | -6%
COc1ccccc1CN1CC(C(=O)N(C)CCc2nc3ccc(F)cc3[nH]2)CCC1=O (stereo not drawn) | -3%
CCN(CC)CCN1C(=O)C(=O)/C(=C(/O)c2cccc(OC)c2)C1c1ccccn1 (stereo not drawn) | -11%
CCOc1cc(C2C(C#N)=C(N)OC3=C2C(=O)CC(C)(C)C3)cc([N+](=O)[O-])c1O (stereo not drawn) | -3%
Cc1ccc(/C=C/C(=O)c2cc(Br)ccc2OC(=O)c2ccco2)cc1 | -2%
O=C(Nc1ccc(C(=O)Oc2ccccc2)c(O)c1)c1ccco1 | 3%
N#CC(c1ccc(O)cc1)N1CCOCC1 (stereo not drawn) | -12%
Cc1ccc(NC(=O)CS(=O)CC(=O)NCC2OCCc3ccccc32)c(C)c1 (stereo not drawn) | -5%
COc1ncc2nc(-c3ccc(Cl)cc3)c(=O)n(Cc3cccs3)c2n1 | 0%
CC(C)OC(=O)c1c(NC(=O)CCC(=O)O)sc2c1CCCCC2 | -25%
COc1ccc(C(=O)Nc2ccc(O)c3c(=O)cc(-c4cccc(Cl)c4)oc23)cc1 | -12%
O=C(CC1C(=O)NCCN1C(=O)Nc1ccc(F)cc1)Nc1cc(Cl)ccc1Cl (stereo not drawn) | -1%
CCCn1c(N)c(C(c2ccc(OC)cc2)N2CCN(c3ccccc3)CC2)c(=O)[nH]c1=O (stereo not drawn) | 56µM*
CCOC(=O)C(Oc1ccc2c(-c3ccccc3)cc(=O)oc2c1C)c1ccccc1 (stereo not drawn) | ?
CCOc1ccc(CNC(=O)c2ccc3c(c2)c(C)c(C)n3Cc2ccc(Cl)cc2)cc1 | 2%
COC(=O)c1ccc(COC(=O)C2CCN(S(=O)(=O)c3ccc(C)c(C)c3)CC2)o1 | -2%
Fc1ccc(-n2cc(-c3ccccc3)[n+]3c2SCC3)cc1 | 0%
Cc1c(C(=O)NCc2ccco2)oc2ccc(S(=O)(=O)N3CCC4(CC3)OCCO4)cc12 | -1%
CCCCn1c(N)c(N(CCOC)C(=O)COC(=O)CSc2cc(C)c3ccccc3n2)c(=O)[nH]c1=O | 19%
C[C@@H](C(=O)N[C@@H](Cc1ccccc1)C(=O)O)n1nnc2ccccc2c1=O | 14%
O=C(c1ccc(N2CCN(C3CC(=O)N(Cc4cccs4)C3=O)CC2)cc1)c1cccnc1 (stereo not drawn) | -9%
CSCCC(NS(=O)(=O)c1cccs1)C(=O)NCc1ccccc1 (stereo not drawn) | -16%

# (continued)
SMILES | VDR inh
O=C(NCC(c1cccs1)N1CCOCC1)c1cc([N+](=O)[O-])cc([N+](=O)[O-])c1 (stereo not drawn) | -14%
CC(NC(=O)c1ccccc1NC(=O)c1nsc2ccccc12)c1ccccc1 (stereo not drawn) | 1%
O=C(Nc1ccccc1)c1n[nH]c(Cn2cncn2)n1 | -4%
O=[N+]([O-])c1ccc(CSc2nc3ccccc3[nH]2)cc1 | 1%
Cc1cc(C)n2nc(Sc3ncccc3[N+](=O)[O-])nc2n1 | -4%
COC(=O)c1cn(S(=O)(=O)c2ccccc2)c2ccccc12 | -7%
O=C(CSc1nc2nn(-c3ccccc3)c(=O)c-2c2n1CCCCC2)Nc1ccc(OC(F)F)cc1 | -9%
Cn1nc(C(F)(F)F)c(-c2ccc(Br)cc2)c1NC(=O)c1cccnc1 | -18%
COc1ccccc1N=C1SC(C(=O)Nc2ccccc2OC)CC(=O)N1C (stereo not drawn) | -6%
Cc1ccc(-c2nnc(Nc3cccc(Cl)c3)c3ccccc23)cc1S(=O)(=O)N1CCCCC1 | -15%

# Pulled by compound from the list above, 6 records:
SMILES | VDR inh
COC(=O)c1cn(S(=O)(=O)c2ccccc2)c2ccccc12 | -7%
O=C(NCC(c1cccs1)N1CCOCC1)c1cc([N+](=O)[O-])cc([N+](=O)[O-])c1 (stereo not drawn) | -14%
Cc1ccc(-c2nnc(Nc3cccc(Cl)c3)c3ccccc23)cc1S(=O)(=O)N1CCCCC1 | -15%
Cn1nc(C(F)(F)F)c(-c2ccc(Br)cc2)c1NC(=O)c1cccnc1 | -18%
O=[N+]([O-])c1ccc(CSc2nc3ccccc3[nH]2)cc1 | 1%
COc1ccccc1N=C1SC(C(=O)Nc2ccccc2OC)CC(=O)N1C (stereo not drawn) | -6%

# Remaining list, next part
SMILES | VDR inh
O=C(CSc1nnc(COc2ccc(Cl)cc2)o1)NC1CCCCC1 | -5%
CC(C)c1nn2c(=O)cc(COC(=O)c3ccccc3NC(=O)c3cccc(Cl)c3)nc2s1 | 4%
Fc1ccc(CNC(=S)Nc2ccc(Cl)cc2Cl)cc1 | -7%
O=C(NCc1ccco1)c1cc(S(=O)(=O)N2CCCCC2)ccc1Cl | -16%
COc1ccc(/C=C(\C#N)C(=O)Nc2cccnc2)cc1 | -5%
COC(=O)CCC(=O)OC1(C)C(=O)C2=CN(c3ccccc3)C(c3ccc(OC)cc3)=CC2=C(Br)C1=O (stereo not drawn) | ?
Cc1cc(C)cc(-n2ccn(CC(=O)Nc3ccccc3F)c(=O)c2=O)c1 | -17%
Cc1cc(=O)n2nc(N3CCCC(C(=O)NC4CCC(C)CC4)C3)sc2n1 (stereo not drawn) | -10%
Clc1ccc2noc(-c3ccccc3)c2c1 | 7%
O=C(CCNC(=O)c1ccccc1Cl)Nc1cc(C(F)(F)F)ccc1N1CCCC1 | -13%
O=C1NC(Nc2nccs2)(C(F)(F)F)C(=O)N1CCc1ccccc1 (stereo not drawn) | 1%
O=c1c2ccccc2sn1-c1cc(S(=O)(=O)N2CCOCC2)ccc1N1CCCC1 | ?
COc1ccc(S(=O)(=O)N2Cc3ccccc3CC2C(=O)Nc2nccs2)cc1 (stereo not drawn) | -2%
COc1ccc(C2(CNC(=O)c3ccc(C)cc3)CCOCC2)cc1 | 8%
Cc1cc(N2CCCC2)ccc1/C=C1/C(=O)N(C)C(=S)N1C | -8%
Cc1cccc2cc(CN(CCCO)C(=O)Nc3ccccc3Cl)c(=O)[nH]c12 | 17%
CCOc1ccc(S(=O)(=O)N2CCN(C(=O)C3CCC3)CC2)cc1 | -3%
O=C(c1cnccn1)N1CCC2(CCCN(c3ccncc3)C2)CC1 | 5%
CC(C)COC(=O)c1cccc2c1-c1ccccc1/C2=N\O | 12%
CN(C)C(=O)c1snnc1-c1ccccc1 | 12%
COc1ccc(-n2c(C)nc3cc(C(=O)N4CCOCC4)ccc32)cc1 | -2%
COC(=O)N/N=C(C)\C=C\c1ccco1 | 14%
CCOC(=O)N1CCN(C(=S)NC(=O)C2CCCC2)CC1 | -3%
CCC(C(=O)Nc1cc(Cl)ccc1OC)c1ccccc1 (stereo not drawn) | 8%
Cc1ccc(N2C(S)=C(C#N)C(=O)NC2c2cccs2)cc1 (stereo not drawn) | 25µM*
Cc1ccc(S(=O)(=O)N(C)C)cc1NC(=S)NCc1ccco1 | -17%
COc1cc(/C=C2\COC/C(=C\c3cc(OC)c(OC)c(OC)c3)C2=O)cc(OC)c1OC | ?
O=C(CSc1c[nH]c2ccccc12)N1CCCc2ccccc21 | -1%
CSc1nnc(C)c(/C=C/Nc2ccc(C)cc2)n1 | 19%
CCN(CC(=O)NC)S(=O)(=O)c1ccc(Br)cc1 | -2%
CS(=O)(=O)N1CCN(C(=O)c2cc3ccccc3oc2=O)CC1 | 14%
COc1cc(CC(=O)Nc2ccc(S(=O)(=O)N(C)C)cc2)cc(OC)c1OC | 2%
Cc1csc2nc(COc3cccc(NC(=O)c4ccccc4F)c3)cc(=O)n12 | -5%
CC(OC(=O)CC1Sc2ccccc2NC1=O)C(=O)NC1CCCC1 (stereo not drawn) | 1%
O=C(Cn1ncc2c(=O)oc3ccccc3c21)N1CCN(C(=O)c2ccco2)CC1 | -3%
CCc1ccc(-n2c(SCC(=O)NC3CCS(=O)(=O)C3)nc3ccccc3c2=O)cc1 (stereo not drawn) | -9%
CCc1ccc(N(CC(=O)N2CCN(Cc3ccccc3)CC2)S(C)(=O)=O)cc1 | 13%
CCC/C(O)=C1\C(=O)CCCC1=NCCc1ccc(OCC)c(OCC)c1 | 14%
CC(=O)NCCn1c(SCc2cc(=O)n3cc(Cl)ccc3n2)nc2ccccc2c1=O | 10%
COc1cc(C(CCN2CCCC(C)C2)c2c(OC)cc(OC)c3c(C)cc(=O)oc23)cc(OC)c1OC (stereo not drawn) | 2%
CC/C(Cc1ccccc1)=N/NC(=O)CNC(=O)c1ccc(Cl)cc1Cl | -7%
CCOc1ccc(CCN2C(=S)N([C@@H](CC(C)C)CN3CCCC3CN3C(=S)NC[C@@H]3CC(C)C)C[C@@H]2Cc2ccccc2)cc1 (stereo partly drawn) | -16%
CCOc1ccc(-c2nc(N)ncc2-c2ccc(OC)cc2)c(O)c1 | 5%
Cc1ccc(Cc2nc3ccccc3nc2SCC(=O)NCCc2ccccc2)cc1 | 12%
COc1ccccc1NC(=O)Cc1ccc(-c2ccccc2)cc1 | -18%
COc1ccc(-c2ccc3sc4ccccc4c(=O)c3c2)cn1 | -4%
COC(=O)c1ccccc1NC(=O)c1cc(OC)cc(OC)c1 | 9%
Cc1ccccc1NC(=O)c1ccc(Nc2c([N+](=O)[O-])cc([N+](=O)[O-])c3ccccc23)cc1 | 2%
COc1cc(Br)cc(C2C3=C(CCCC3=O)N(c3ccc(F)cc3)C3=C2C(=O)CCC3)c1O | -2%
COc1cccc(C(=O)c2cn(CC(=O)NCCc3ccccc3)c3nc(C)ccc3c2=O)c1 | 3%

# Bioassay records from PubChem BioAssay.
